Assay outcomes: PubChem BioAssay, Broad Institute
mut p53 SMM: mutant p53 (human) binding; small molecule microarray binding, anti-GST fluorescence; calls only; AID 624136; 0.4% of 17,000 active;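 active = compounds whose four printed spots each glow above background more than chance allows, each with a p-value under 7%; compounds were printed on slides so no solution concentration is given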;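 note: about 2 pmol printed per array spot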
STAT3 binder: STAT3 (human) binding; calls only; Small molecule microarray, His-STAT3 binding, anti-His fluorescence; 0.2% of 17,000 active; P40763;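 active = compounds whose four printed spots each show fluorescence over background unusually high for their array block, chance value under 7%; compounds were printed on slides so no solution concentration is given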;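 note: about 2 pmol printed per array spot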
Target sequence (P40763 whole entry, looked up): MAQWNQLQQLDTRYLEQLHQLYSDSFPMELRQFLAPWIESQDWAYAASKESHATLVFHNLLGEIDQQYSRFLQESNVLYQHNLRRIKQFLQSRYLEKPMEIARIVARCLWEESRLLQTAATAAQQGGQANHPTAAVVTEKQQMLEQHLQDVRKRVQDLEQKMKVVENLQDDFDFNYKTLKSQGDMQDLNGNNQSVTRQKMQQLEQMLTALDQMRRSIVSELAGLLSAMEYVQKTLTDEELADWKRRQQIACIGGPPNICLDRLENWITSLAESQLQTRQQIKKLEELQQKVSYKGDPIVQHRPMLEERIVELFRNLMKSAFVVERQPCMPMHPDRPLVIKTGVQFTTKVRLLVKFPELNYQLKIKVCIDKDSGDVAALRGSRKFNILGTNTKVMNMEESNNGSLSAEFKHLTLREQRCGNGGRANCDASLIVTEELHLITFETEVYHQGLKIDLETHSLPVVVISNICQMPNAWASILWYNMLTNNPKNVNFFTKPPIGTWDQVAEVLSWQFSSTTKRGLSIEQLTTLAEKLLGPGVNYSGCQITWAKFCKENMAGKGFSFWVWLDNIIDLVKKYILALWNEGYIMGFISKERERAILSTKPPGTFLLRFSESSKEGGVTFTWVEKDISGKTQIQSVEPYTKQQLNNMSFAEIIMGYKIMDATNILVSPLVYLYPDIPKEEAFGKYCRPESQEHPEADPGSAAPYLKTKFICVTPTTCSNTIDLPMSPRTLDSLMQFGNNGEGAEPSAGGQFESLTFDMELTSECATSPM
ID4 binder: ID4 (human) binding | small molecule microarray, Flag-ID4 binding, fluorescence F/B | 1.2% of 31,000 active | calls only | P47928;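 active = spot signal over background at p below 0.07 in all four prints; compounds were printed on slides so no solution concentration is given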;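 note: a binder raises fluorescence above local background on the spot; about 2 pmol printed per array spot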
Target sequence (P47928 whole entry, looked up): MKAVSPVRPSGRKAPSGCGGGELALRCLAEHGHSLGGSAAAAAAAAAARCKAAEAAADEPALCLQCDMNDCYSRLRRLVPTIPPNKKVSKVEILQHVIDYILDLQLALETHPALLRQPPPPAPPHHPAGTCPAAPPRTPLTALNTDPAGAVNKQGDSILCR
c-Myc SMM: c-Myc (human) binding; small molecule microarray, His-c-Myc binding, anti-His fluorescence; calls only; 1.5% of 17,000 active; AID 624141;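 active = spot fluorescence over background with P-value below 7% in all four replicate spots, showing protein binding; compounds were printed on slides so no solution concentration is given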;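 note: score is binary with 100 for all four spots passing and 0 otherwise; about 2 pmol printed per array spot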
Calls only; i = inactive; . = no result given; + = active, no number.

SMILES	mut p53 SMM	STAT3 binder	ID4 binder	c-Myc SMM
Cc1noc(C)c1NC(=O)N(C)C[C@@H]1OCCCC[C@H](C)Oc2ccc(NS(C)(=O)=O)cc2C(=O)N([C@H](C)CO)C[C@@H]1C	i	i	i	i
CC12C=CC(=O)C=C1CCC1C2=CCC2(C)C1CC[C@@H]2C(=O)CN1CCN(c2cc(N3CCCC3)nc(N3CCCC3)n2)CC1 (some centres not stated)	i	i	i	+
CNC[C@@H]1Oc2c(NC(=O)c3cc(C)nn3C)cccc2C(=O)N([C@H](C)CO)C[C@@H]1C	i	i	i	i
C[C@@H]1CN([C@@H](C)CO)C(=O)c2cccc(NS(=O)(=O)c3ccc(Cl)cc3)c2O[C@@H]1CN(C)C(=O)Nc1ccc(F)cc1	i	i	i	i
Cc1noc(C)c1S(=O)(=O)N(C)C[C@H]1Oc2ccc(NC(=O)Nc3ccccc3)cc2CC(=O)N([C@H](C)CO)C[C@H]1C	i	i	i	i
C[C@@H]1CN([C@H](C)CO)C(=O)c2cc(NS(=O)(=O)c3cccs3)ccc2O[C@H]1CN(C)C(=O)Nc1ccc(F)cc1	i	i	i	i
C[C@H](CO)N1C[C@H](C)[C@H](CN(C)C)Oc2ccc(NC(=O)CCC(F)(F)F)cc2CC1=O	i	i	i	i
O=C(COc1ccc(I)cc1)Nc1cccnc1	i	i	i	i
Cc1cc(C)c(NC(=O)CSc2nc(O)cc(=O)[nH]2)c(C)c1	i	i	i	i
C[C@H]1CN([C@@H](C)CO)C(=O)Cc2cc(NC(=O)Cc3ccccc3)ccc2O[C@H]1CN(C)CC1CC1	i	i	i	i
Cc1cc(C)nc(SCc2csc(N)n2)n1	i	i	+	i
CC(C)NC(=O)N(C)C[C@@H]1Oc2ccc(NC(=O)CCC(F)(F)F)cc2C(=O)N([C@@H](C)CO)C[C@H]1C	i	i	i	i

Pulled one by one from the entries so far (3):
SMILES	mut p53 SMM	STAT3 binder	ID4 binder	c-Myc SMM
CNC[C@@H]1Oc2c(NC(=O)c3cc(C)nn3C)cccc2C(=O)N([C@H](C)CO)C[C@@H]1C	i	i	i	i
Cc1noc(C)c1NC(=O)N(C)C[C@@H]1OCCCC[C@H](C)Oc2ccc(NS(C)(=O)=O)cc2C(=O)N([C@H](C)CO)C[C@@H]1C	i	i	i	i
C[C@H]1CN([C@@H](C)CO)C(=O)Cc2cc(NC(=O)Cc3ccccc3)ccc2O[C@H]1CN(C)CC1CC1	i	i	i	i

(further entries)
SMILES	mut p53 SMM	STAT3 binder	ID4 binder	c-Myc SMM
C[C@H]1CCCCO[C@H](CN(C)S(=O)(=O)c2cccs2)[C@@H](C)CN([C@@H](C)CO)C(=O)c2cc(NS(C)(=O)=O)ccc2O1	i	i	i	i
O=C(NCc1ccco1)c1cnn2c(C(F)F)cc(-c3ccccc3)nc12	i	i	i	i
C[C@H]1CN([C@@H](C)CO)C(=O)c2cccc(NC(=O)C3CCOCC3)c2O[C@H]1CN(C)Cc1ccc(C(F)(F)F)cc1	i	i	i	i
C[C@H]1CN([C@@H](C)CO)C(=O)Cc2cc(NC(=O)CCC(F)(F)F)ccc2O[C@H]1CN(C)C(=O)Nc1ccccc1	i	i	i	i
Cc1ccc(N(C(C)C(=O)NC2CC2)S(C)(=O)=O)cc1 (configuration not stated)	i	i	i	i
C[C@H]1CN([C@@H](C)CO)C(=O)c2cccc(NC(=O)c3nc4ccccc4s3)c2O[C@H]1CN(C)S(=O)(=O)c1cccs1	i	i	i	i
CC(=O)Nc1ccc(NC(=O)CC2Sc3ccc(C(F)(F)F)cc3NC2=O)cc1 (configuration not stated)	i	i	i	i
COc1ccc(OC)c(C2N=C(Nc3nc4ccccc4s3)NC3=C2C(=O)CC(C)(C)C3)c1 (configuration not stated)	i	i	i	i
Cc1ccc(S(=O)(=O)N2Cc3ccccc3CC2C(=O)Nc2sc3c(c2C#N)CCCC3)cc1 (configuration not stated)	i	i	i	i
Cc1noc(C)c1S(=O)(=O)N(C)C[C@H]1Oc2ccc(NS(=O)(=O)c3cn(C)cn3)cc2CC(=O)N([C@@H](C)CO)C[C@H]1C	i	i	i	i
CC(C)NC(=O)N(C)C[C@H]1Oc2ccc(NC(=O)CCN3CCOCC3)cc2CC(=O)N([C@@H](C)CO)C[C@@H]1C	i	i	i	i
Cc1noc(C)c1NC(=O)Nc1ccc2c(c1)CC(=O)N([C@@H](C)CO)C[C@@H](C)[C@@H](CN(C)C)O2	i	i	i	i
C[C@H](CO)N1C[C@H](C)[C@@H](CN(C)C)OCc2cn(nn2)CCCC1=O	i	i	i	i
Cc1cc(C)cc(OCC(=O)Nc2cccc(-c3nc4ccccc4o3)c2)c1	i	i	i	i
O=[N+]([O-])c1ccc(S(=O)(=O)CC2CSc3nc4ccccc4n32)cc1 (configuration not stated)	i	i	i	i
C[C@@H]1CCCCO[C@H](CN(C)C)[C@H](C)CN([C@H](C)CO)C(=O)c2cc(NC(=O)c3ccccc3)ccc2O1	i	i	i	i
O=C(C1=C[C@@H](C2CCCCC2)C[C@@H](OCc2ccc(CO)cc2)O1)N1CCN(Cc2ccccc2)CC1	i	i	.	i
Cc1nc(S(=O)(=O)NC[C@@H]2CCCN(Cc3cccc(OCCO)c3)C2)cn1C	i	i	i	i
C[C@H]1CN([C@@H](C)CO)C(=O)Cc2cc(NC(=O)NC3CCCCC3)ccc2O[C@@H]1CN(C)C(=O)Nc1ccc(C(F)(F)F)cc1	i	i	i	i
C[C@@H]1CCCCO[C@H](CN(C)Cc2ccc3c(c2)OCO3)[C@@H](C)CN([C@H](C)CO)C(=O)c2cc(NC(=O)CCCN(C)C)ccc2O1	i	i	i	i
Cc1ccc(OCCCn2cnc3ccccc3c2=O)c([N+](=O)[O-])c1	i	i	i	i
COc1ccc(CN(C)C[C@H]2Oc3ccc(NC(=O)Nc4cccc5ccccc45)cc3CC(=O)N([C@@H](C)CO)C[C@@H]2C)cc1	i	i	i	i
C[C@@H]1CN([C@@H](C)CO)C(=O)Cc2cc(NC(=O)Cc3ccccc3)ccc2O[C@@H]1CN(C)CC1CC1	i	i	i	i
COc1cc(C)c(C(=O)O[C@H]2[C@@H](OC(C)=O)[C@H](n3ccc(=O)[nH]c3=O)O[C@@H]2CO)c(OC)c1	i	i	i	i
O=C1c2ccccc2C(Cc2ccncc2)(Cc2ccncc2)c2ccccc21	i	i	i	i
C[C@H](CO)N1C[C@H](C)[C@H](CN(C)C(=O)Nc2ccc(F)cc2)Oc2ccc(NC(=O)Nc3ccc(F)cc3)cc2C1=O	i	i	i	i
CCc1cccc(C)c1NC(=O)CSc1nc2cc(C)cc(-n3nc4ccccc4n3)c2o1	i	i	i	i
Cn1nnnc1SCC(=O)Nc1ccc(Oc2ccccc2)cc1	i	i	i	i
Cc1ccc(S(=O)(=O)NCCSc2ncc(-c3ccc([N+](=O)[O-])cc3)[nH]2)cc1	i	i	i	i
C[C@@H]1CN([C@H](C)CO)C(=O)Cc2cc(NS(=O)(=O)c3ccccc3)ccc2O[C@H]1CN(C)C(=O)Nc1ccc2c(c1)OCO2	i	i	i	i
C[C@@H]1CN([C@@H](C)CO)C(=O)Cc2cc(NC(=O)Nc3cccc4ccccc34)ccc2O[C@@H]1CN(C)CC1CC1	i	i	i	i
COc1ccc(S(=O)(=O)N(C)C[C@H]2Oc3c(NC(=O)C4CC4)cccc3C(=O)N([C@H](C)CO)C[C@H]2C)cc1	i	i	i	i
COc1ccc2ncnc(NCc3ccc4c(c3)OCO4)c2c1	i	i	i	i
Cc1noc(C)c1NC(=O)N(C)C[C@@H]1Oc2c(NC(=O)c3ccncc3)cccc2C(=O)N([C@@H](C)CO)C[C@H]1C	i	i	i	i
O=C(O)CNS(=O)(=O)c1cc(Cl)c(Cl)cc1Cl	+	i	i	+
C[C@@H]1CN([C@@H](C)CO)C(=O)c2cc(N(C)C)ccc2O[C@@H]1CN(C)S(=O)(=O)c1ccccc1	i	i	i	i
COc1ccccc1NC(=O)Cn1nc(C)c([N+](=O)[O-])c1C	i	i	i	i
CCc1ccc(CCC(=O)Nc2sc3c(c2C#N)CCCC3)o1	i	i	i	i
C[C@H]1CN([C@@H](C)CO)C(=O)c2cccc(NC(=O)c3ccncc3)c2O[C@@H]1CN(C)Cc1ccc2c(c1)OCO2	i	i	i	i
Cc1noc(C)c1S(=O)(=O)N(C)C[C@H]1OCCCC[C@@H](C)Oc2ccc(NC(=O)NC3CCCCC3)cc2C(=O)N([C@@H](C)CO)C[C@@H]1C	i	i	.	i
COc1ccccc1CC(CC(=O)O)C(=O)O (configuration not stated)	i	i	i	+
Cc1noc(C)c1NC(=O)N(C)C[C@H]1Oc2c(NC(=O)c3ccc(-c4nccs4)cc3)cccc2C(=O)N([C@@H](C)CO)C[C@H]1C	i	i	i	i
C[C@H]1CCCCO[C@@H](CN(C)C(=O)Nc2cccc3ccccc23)[C@@H](C)CN([C@@H](C)CO)C(=O)c2cc(NC(=O)c3ccncc3)ccc2O1	i	i	i	i
C[C@@H]1CCCCO[C@@H](CN(C)C)[C@@H](C)CN([C@H](C)CO)C(=O)c2cc(NC(=O)c3ccccc3)ccc2O1	i	i	i	i
C[C@@H]1CN([C@@H](C)CO)C(=O)Cc2cc(NC(=O)Cc3ccccc3)ccc2O[C@@H]1CN(C)C(=O)NC1CCCCC1	i	i	i	i
C[C@@H]1CN([C@H](C)CO)C(=O)c2cccc(NC(=O)Nc3ccc(F)cc3)c2O[C@@H]1CN(C)C(=O)NC1CCCCC1	i	i	i	i
C[C@@H]1CN([C@@H](C)CO)C(=O)c2cccc(NS(C)(=O)=O)c2O[C@H]1CN(C)Cc1ccc(Oc2ccccc2)cc1	i	i	i	i
O=C1O[C@H](c2ccccc2)[C@H](c2ccccc2)N2[C@H]1[C@@H](C(=O)N1CCCCCCC1)[C@]1(C(=O)Nc3ccc(C#CC4(O)CCCCCC4)cc31)[C@H]2c1ccccc1OCCO	+	i	i	i
C[C@H](CO)N1C[C@H](C)[C@@H](CN(C)C(=O)Nc2ccc(C(F)(F)F)cc2)Oc2ccc(NC(=O)C3CCCCC3)cc2C1=O	i	i	.	i
C[C@@H]1CN([C@@H](C)CO)C(=O)c2cccc(NC(=O)c3nc4ccccc4s3)c2O[C@H]1CN(C)C(=O)Nc1ccccc1	i	i	i	i
COc1cc(CN2CCN(CCO)CC2)c([N+](=O)[O-])cc1OC	i	i	i	i
C[C@@H]1CCCCO[C@@H](CN(C)Cc2ccncc2)[C@H](C)CN([C@H](C)CO)C(=O)c2cc(N(C)C)ccc2O1	i	i	i	i
C[C@H]1CN([C@@H](C)CO)C(=O)c2cccc(NC(=O)Nc3ccc(F)cc3)c2O[C@H]1CN(C)Cc1ccc(C(F)(F)F)cc1	i	i	i	i
C[C@H](CO)N1C[C@H](C)[C@@H](CN(C)C(=O)Nc2ccc(C(F)(F)F)cc2)Oc2c(NS(=O)(=O)c3ccccc3)cccc2C1=O	i	i	i	i
COc1ccc(S(=O)(=O)Nc2ccc3c(c2)CC(=O)N([C@H](C)CO)C[C@@H](C)[C@H](CN(C)C(=O)Nc2ccc(F)cc2)O3)cc1	i	i	.	i
COC(=O)C1=COC(O[C@@H]2O[C@H](CO)[C@@H](O)[C@H](O)[C@H]2O)[C@@H]2[C@@H](C)[C@@H](OC(=O)/C=C/c3ccc(O)c(O)c3)[C@@H](O)[C@H]12 (some centres not stated)	i	i	i	i
Cc1noc(C)c1NC(=O)N(C)C[C@H]1OCCCC[C@@H](C)Oc2ccc(N(C)C)cc2C(=O)N([C@H](C)CO)C[C@H]1C	i	i	i	i
O=C1C[C@@H](c2ccc(O)cc2)Oc2cc(O)c([C@@H]3O[C@H](CO)[C@@H](O)[C@H](O)[C@H]3O)c(O)c21	i	i	i	i
NS(=O)(=O)C#Cc1ccccc1	i	i	i	i
CN(Cc1ccccc1)CC1CC(c2ccccc2)OC(c2ccc(NC(=O)CCCCCCC(=O)O)cc2)O1 (configuration not stated)	i	i	+	i

(listing goes on)
SMILES	mut p53 SMM	STAT3 binder	ID4 binder	c-Myc SMM
COc1ccc(-c2cnc3c(c2)C(=O)N([C@H](C)CO)C[C@H](C)[C@H](CN(C)Cc2ccc4c(c2)OCO4)O3)cc1	i	i	i	i
C[C@H](CO)N1C[C@H](C)[C@@H](CN(C)C(=O)Nc2ccccc2)OCCCC[C@H](C)Oc2ccc(NC(=O)C3CCCCC3)cc2C1=O	i	i	i	i
CC(C)NC(=O)Nc1ccc2c(c1)C(=O)N([C@@H](C)CO)C[C@H](C)[C@H](CN(C)C(=O)c1ccncc1)OCCCC[C@H](C)O2	i	i	i	i
Cc1ccc2[nH]c(=O)c(CN(C)S(C)(=O)=O)cc2c1	i	i	i	i
O=S(=O)(Nc1ccc(Cl)cn1)c1cccc(S(=O)(=O)c2ccccc2)c1	i	i	i	i

Structural class: the compounds so far containing an aryl thioether with sulfur outside any ring (5)
SMILES	mut p53 SMM	STAT3 binder	ID4 binder	c-Myc SMM
Cc1cc(C)c(NC(=O)CSc2nc(O)cc(=O)[nH]2)c(C)c1	i	i	i	i
Cc1cc(C)nc(SCc2csc(N)n2)n1	i	i	+	i
CCc1cccc(C)c1NC(=O)CSc1nc2cc(C)cc(-n3nc4ccccc4n3)c2o1	i	i	i	i
Cn1nnnc1SCC(=O)Nc1ccc(Oc2ccccc2)cc1	i	i	i	i
Cc1ccc(S(=O)(=O)NCCSc2ncc(-c3ccc([N+](=O)[O-])cc3)[nH]2)cc1	i	i	i	i
